Compound activity (PubChem BioAssay)
ClpP mod – qHTS Assay for Activators of ClpP. Potency, µM (highest dose often 57.5 µM), without a hit: at the top dose activity change, negative = active. purified B. subtilis ClpP, FRET peptide cleavage, 20 min. 340,000 compounds, 1.9% hits. ATP-dependent Clp protease proteolytic subunit (Bacillus subtilis (strain 168)), P80244; active = well fitted falling curve with a large enough effect; inconclusive = small, poorly fitted or top-dose-only effect; inactive = no such curve, though single readings can be large or run the other way; further: the source files actives as falling curves though it sought activators and does not explain the sign; nearly all actives have a fitted effect of over 65% in size; many hits overshoot -100%
Target sequence (P80244 whole entry, looked up): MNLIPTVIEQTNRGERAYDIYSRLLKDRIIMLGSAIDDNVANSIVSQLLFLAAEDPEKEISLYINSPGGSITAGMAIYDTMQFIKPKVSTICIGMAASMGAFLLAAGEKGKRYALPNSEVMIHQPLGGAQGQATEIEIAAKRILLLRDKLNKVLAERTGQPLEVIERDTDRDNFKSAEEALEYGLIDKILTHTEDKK
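Purified B. subtilis ClpP, 10 microg/mL final in Tris/HCl pH8 with KCl, BSA, glycerol and Tween-20, cleaved an Abz/nitrotyrosine-quenched decapeptide. Fluorescence (ex 320, em 430) was read at 0 and 20 min at room temperature. Delta was normalized to 5.8 microM ADEP and DMSO/no-enzyme controls.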
* marks the source's active call; other numbers are inactive results; ? = inconclusive. Potency means the concentration at half of the fitted maximal effect. Only part of the results is shown; rates above refer to the full screens.

SMILES	ClpP mod
COc1ccc(S(=O)(=O)N2CCN(Cc3nc4ccc(C)cc4o3)CC2)cc1OC	-7.7%
O=C(Cc1ccccc1)Nc1sc2c(c1C(=O)Nc1ccccc1Cl)CCC2	-5.4%
CCOc1ccc(C(=O)c2cn(Cc3ccccc3OC)c3cc4c(cc3c2=O)OCCO4)cc1	2.1%
COc1ccc(CNC(=O)C2=C(C)C(=O)OC23CCN(C(C)=O)CC3)cc1	3.1%
Cc1ccccc1-c1noc(-c2ccc(NCc3cccnc3)c([N+](=O)[O-])c2)n1	-2.0%
CCn1c(C(=O)N2CCC(C(=O)NCCc3ccc(C)cc3)CC2)cc2sccc21	2.6%
O=C(CN1C(=O)COc2ccc(S(=O)(=O)N3CCCCCC3)cc21)N1CCN(c2ccc(Cl)cc2)CC1	1.3%
COc1ccccc1-c1cc(C(F)(F)F)nc(S(=O)(=O)CCCC(=O)Nc2ccc(F)cc2F)n1	4.3%
O=C(CNC(=O)c1ccccc1)OCc1cc(=O)n2nc(C3CC3)sc2n1	-5.7%
Cc1ccc(N2CCN(C(=O)c3ccc(Nc4nc5ccccc5n5nnnc45)cc3)CC2)c(C)c1	1.1%
C=C(C)Cn1c(SCC(=O)Nc2cccc(C)c2)nc2sc3c(c2c1=O)CCCC3	-0.3%
CCCOc1ccccc1C(=O)N1CCCCC1CCN1CCOCC1 (stereo unspecified)	-0.8%
CC(C)NS(=O)(=O)c1ccc(OCC(=O)N2CCN(c3ccccc3F)CC2)cc1	0.8%
COc1ccc(CCNC(=O)c2ccc3c(c2)N(Cc2ccccc2F)C(=O)c2ccccc2S3(=O)=O)cc1OC	3.3%
CCS(=O)(=O)N1CCc2cc(C(=O)NCc3ccccc3OC)ccc21	-1.7%
Nc1cc([N+](=O)[O-])cc(N)c1N	0.7%
Cc1cc(C)c(NC(=O)CSc2nc(=O)n(Cc3ccncc3)c3c2CCC3)c(C)c1	-25%
CC(=O)c1ccccc1S(=O)(=O)N1CCN(c2nc(-c3cccs3)nc3ccccc23)CC1	?
CCOc1ccc(NC(c2ccc(Cl)cc2)c2nnc(-c3cccc(F)c3)o2)cc1 (stereo unspecified)	-2.0%
COc1ccc(C(=O)Nc2ccc(-c3nc4ncccc4o3)cc2)cc1	4.0%
COC(=O)c1c(C)oc2ccc(N(C(=O)c3ccncc3)S(=O)(=O)c3ccc(OC)cc3)cc12	-2.8%
COc1ccccc1N1CCN(C(=O)c2oc3ccccc3c2N)CC1	?
Cc1ccc(CNC(=O)c2cc3c(=O)oc4ccc(C)cc4c3s2)cc1	-2.1%
COc1ccc(OC)c(/C=C/c2nc3ccccc3nc2C)c1	3.8%
CCOC(=O)c1c(NC(=O)c2ccc(S(=O)(=O)N(CC(C)C)CC(C)C)cc2)sc2c1CCN(CC)C2	-7.1%
CCCc1cnc2c(c1SCC(=O)N(C)c1ccccc1)c(=O)n(C)c(=O)n2C	-0.3%
COc1ccc(-c2noc(CNC(=O)c3cc(OC)c(OC)c(OC)c3)n2)cc1	-2.2%
COc1cc(OC)c(NC(=O)NCc2cccn2Cc2ccccc2)cc1Cl	1.0%
CCOC(=O)c1[nH]c2ccccc2c1NC(=O)c1cc(Cl)ccc1Cl	4.2%
COc1cc(NC(=O)CN2CCCN(Cc3cccc(F)c3)S2(=O)=O)cc(OC)c1	-2.3%

21 compounds out of the list, arranged by SMILES length, ascending.
SMILES	ClpP mod
Nc1cc([N+](=O)[O-])cc(N)c1N	0.7%
CCCOc1ccccc1C(=O)N1CCCCC1CCN1CCOCC1 (stereo unspecified)	-0.8%
COc1ccc(OC)c(/C=C/c2nc3ccccc3nc2C)c1	3.8%
COc1ccccc1N1CCN(C(=O)c2oc3ccccc3c2N)CC1	?
COc1cc(OC)c(NC(=O)NCc2cccn2Cc2ccccc2)cc1Cl	1.0%
CCS(=O)(=O)N1CCc2cc(C(=O)NCc3ccccc3OC)ccc21	-1.7%
CCOC(=O)c1[nH]c2ccccc2c1NC(=O)c1cc(Cl)ccc1Cl	4.2%
O=C(Cc1ccccc1)Nc1sc2c(c1C(=O)Nc1ccccc1Cl)CCC2	-5.4%
O=C(CNC(=O)c1ccccc1)OCc1cc(=O)n2nc(C3CC3)sc2n1	-5.7%
COc1ccc(-c2noc(CNC(=O)c3cc(OC)c(OC)c(OC)c3)n2)cc1	-2.2%
CCn1c(C(=O)N2CCC(C(=O)NCCc3ccc(C)cc3)CC2)cc2sccc21	2.6%
CC(C)NS(=O)(=O)c1ccc(OCC(=O)N2CCN(c3ccccc3F)CC2)cc1	0.8%
Cc1cc(C)c(NC(=O)CSc2nc(=O)n(Cc3ccncc3)c3c2CCC3)c(C)c1	-25%
Cc1ccccc1-c1noc(-c2ccc(NCc3cccnc3)c([N+](=O)[O-])c2)n1	-2.0%
CCOc1ccc(C(=O)c2cn(Cc3ccccc3OC)c3cc4c(cc3c2=O)OCCO4)cc1	2.1%
CC(=O)c1ccccc1S(=O)(=O)N1CCN(c2nc(-c3cccs3)nc3ccccc23)CC1	?
Cc1ccc(N2CCN(C(=O)c3ccc(Nc4nc5ccccc5n5nnnc45)cc3)CC2)c(C)c1	1.1%
COc1ccccc1-c1cc(C(F)(F)F)nc(S(=O)(=O)CCCC(=O)Nc2ccc(F)cc2F)n1	4.3%
COC(=O)c1c(C)oc2ccc(N(C(=O)c3ccncc3)S(=O)(=O)c3ccc(OC)cc3)cc12	-2.8%
O=C(CN1C(=O)COc2ccc(S(=O)(=O)N3CCCCCC3)cc21)N1CCN(c2ccc(Cl)cc2)CC1	1.3%
COc1ccc(CCNC(=O)c2ccc3c(c2)N(Cc2ccccc2F)C(=O)c2ccccc2S3(=O)=O)cc1OC	3.3%

(continued)
SMILES	ClpP mod
O=C(Nc1ccc(Cl)cc1F)c1cc(S(=O)(=O)NCc2ccc3c(c2)OCO3)ccc1F	4.5%
COc1ccc(C(=O)Oc2c(Sc3ccccc3)c(C)nn2-c2ccccc2)cc1OC	-8.0%
Cc1cc(C)n(CCc2nc3c4ccccc4nc(N4CCN(c5ccccc5F)CC4)n3n2)n1	1.6%
CCN(C(=O)Cn1ncc2c(=O)oc3ccc(C)cc3c21)c1cc(OC)ccc1OC	1.3%
COc1ccccc1OCC(=O)N(Cc1ccc(Cl)cc1)CC1CCCO1 (stereo unspecified)	-0.1%
Cc1ccc(N(CC(=O)Nc2cccc(Cl)c2C)S(=O)(=O)c2c(C)noc2C)cc1	0.4%
CCn1c(=O)c(=O)n(CC)c2cc(N3CCCCC3)c(NC(=O)c3ccc(OC)c(OC)c3)cc21	?
O=C(NCCc1ccccc1)c1ccc(CSc2nc3ccncc3n2Cc2ccc(F)cc2)cc1	-17%
CCOc1ccccc1NS(=O)(=O)c1cnc(N)nc1	1.5%
CCOc1cccc(NC(=O)c2ccc(F)c(S(=O)(=O)N(CC)c3cccc(C)c3)c2)c1	-16%
O=C(CCSCCc1ccccn1)Nc1ccccc1C(F)(F)F	-4.4%
CCC(=O)OCc1cc(=O)n2nc(C3CC3)sc2n1	-3.2%
COc1cc(C(=O)N2CCC(c3ccncc3)CC2)cc(OC)c1OC	-3.2%
O=C(Nc1ccc2nc(SCC(=O)N3CCCC3)sc2c1)c1ccc(F)cc1	?
O=C(NCCc1ccc(Cl)cc1)c1ccc2c(c1)N(Cc1ccccc1)CCS2	4.4%
O=C(CN1CCSc2ccccc21)N1CCCCC1	0.0%
CCCC[C@@H]1CNC(=O)C(=O)N1CCc1cccc(F)c1	-4.9%
CC(=O)N(O)c1ccc(/C=C2\C=Cc3ccccc32)cc1	0.9%
COc1ccccc1N1CCN(c2c3c(nc4nncn24)CCC3)CC1	2.1%
COc1ccccc1NC(=O)Cn1c(=O)n(CC2CCC(C(=O)NCCc3ccccc3)CC2)c(=O)c2ccccc21 (stereo unspecified)	-1.3%
CCOc1ccccc1CNC(=O)CSc1n[nH]c(-c2ccccc2)n1	0.3%
CCCCn1c(=O)c2oc3ccccc3c2n(Cc2cccc(F)c2)c1=O	?
CCn1c(CN2CCCCC2)nc2cc(NC(=O)COc3ccccc3C(C)(C)C)ccc21	-5.3%
COc1cccc(Cn2c(C)c(CNCc3ccccc3Cl)c(C(=O)O)c2C)c1	-1.0%
CCCNc1c(NC(=O)c2ccc(OCCC)cc2)c(=O)oc2ccccc12	46%
COc1ccc(Cl)cc1NC(=O)Cn1nc(C(F)(F)F)c2c1CCC2	0.4%
CCc1ccc(C2NC(=O)c3[nH]nc(-c4cccc(OC)c4)c32)cc1 (stereo unspecified)	-2.1%
O=C(Cn1ccc2cc(S(=O)(=O)N3CCCC3)ccc21)NCc1ccc(Cl)cc1	-7.9%
CCc1ccc2ncc(S(=O)(=O)c3ccc(Cl)cc3)c(N3CCN(CC)CC3)c2c1	-3.6%
COc1ccc(NC(=O)C2=C(C)Nc3nc(SCc4ccc(Cl)cc4)nn3C2c2cccc(OC)c2OC)cc1 (stereo unspecified)	-9.7%
CCCCN1C(=O)C(CC(=O)NC2CCCCC2)CC(C(=O)N2CCCCCC2)=C1C (stereo unspecified)	-3.5%
O=C(NCCc1ccc(Cl)cc1)c1ccc(CSCc2ccc(Cl)cc2)o1	-0.5%
COc1cccc(CNC(=O)c2ccc(CNS(=O)(=O)c3ccc(C)cc3)cc2)c1	0.7%
O=C(Nc1cc(-c2ccc(Cl)cc2)no1)c1ccc(F)cc1	-5.9%
CCc1ccc(OCC2c3cc(OC)c(OC)cc3CCN2C(=O)COc2ccccc2)cc1 (stereo unspecified)	-4.9%
Cc1ccc(OCC(=O)N(Cc2ccco2)Cc2ccc(C)o2)cc1	-0.4%
CC(NC(=O)c1ccc2c(c1)CCN2S(C)(=O)=O)c1ccccc1 (stereo unspecified)	0.7%
CCn1c(SC(C)C(=O)NCc2ccco2)nnc1-c1ccccc1 (stereo unspecified)	-1.8%
COc1ccc(C(=O)NCC(c2cccnc2)N2CCN(c3ccccc3OC)CC2)cc1 (stereo unspecified)	-1.4%
CCCn1c(=O)c2sccc2n2c(CCCC(=O)Nc3ccc(Oc4ccc(Cl)cc4)cc3)nnc12	-11%
Cn1nnnc1SCCCNCc1ccc(Cl)cc1	-0.8%
COc1cc(C(=O)Nc2ccccc2OCc2cc(=O)n3cc(C)sc3n2)cc(OC)c1OC	0.6%
CCCCNc1nc(Oc2ccc(OCC)nn2)nc(N2CCOCC2)n1	1.2%
Cc1cc2c(cc1S(=O)(=O)NCc1ccc(F)cc1)OCCN2C	-6.9%
O=C(Cn1c(=O)n(-c2ccc(F)c(Cl)c2)c(=O)c2sc3ccccc3c21)NC1CCCC1	?
Cc1ccc(-n2cc3c(c2-c2ccccc2Br)c(=O)n(C)c(=O)n3C)cc1N	-12%
NC(=O)c1ccccc1NC(=O)c1ccc(-c2ccc(Br)cc2)o1	187%
O=C(C[n+]1c(Cl)ccc2ccccc21)c1ccc2ccccc2c1	-27%
Cc1ccc(C(C)C)c(OCCSc2nc(-c3cccs3)nc3cc(=O)[nH]n23)c1	2.7%
Cc1ccc(S(=O)(=O)C2(C(=O)Nc3ccc(Cl)c(C(F)(F)F)c3)CC2)cc1	-0.7%
O=C(CSc1nc2ccccc2nc1Cc1ccccc1)NCc1ccccc1Cl	-1.7%
COc1cc(OC)c(NC(=O)Nc2ccccc2OCc2cc(=O)n3cc(C)ccc3n2)cc1Cl	-1.8%
CCOC(=O)c1ccc(CN(Cc2ccc(F)cc2)S(=O)(=O)c2ccc(F)c(C(=O)Nc3ccc(Cl)cc3F)c2)cc1	-13%
Cc1nc2ccn(Cc3cccnc3)c(=O)c2cc1C(=O)N1CCN(c2ccccc2)CC1	-11%
CCOC(=O)CN(Cc1ccccc1)C(C(=O)NC1CCCCC1)c1ccc(C)cc1 (stereo unspecified)	-0.4%
COc1ccc(C2=C(C)C(=O)N(Cc3ccc(C(=O)Nc4ccc(C)c(C)c4)cc3)S2(=O)=O)cc1	-21%
COc1ccc(-c2nn(-c3cccc([N+](=O)[O-])c3)c3c2cnc2cc4c(cc23)OCO4)cc1	-1.9%
COc1ccc(CNC(=O)C(CC(C)C)NS(=O)(=O)c2ccc3c(c2)oc(=O)n3C)cc1 (stereo unspecified)	-25%
CC(=O)c1ccc(NC(=O)CSc2nnc3ccc(-c4ccc(Br)cc4)nn23)cc1	-23%
O=C(OCc1cc(=O)n2nc(C3CCCCC3)sc2n1)c1ccc(F)cc1	-2.4%

(listing goes on)
SMILES	ClpP mod
CCCCn1c(SCC(=O)Nc2cccc(OC)c2)nc2c(sc3ccccc32)c1=O	4.4%
COCCNC(=O)CCCn1c(SCC(=O)c2ccc(F)cc2)nc2c(sc3ccccc32)c1=O	-1.4%
COC(=O)c1c(NC(=O)c2cccc(OC)c2)sc2c1CCC(C(C)(C)C)C2 (stereo unspecified)	?
COc1ccc(C)cc1NC(=O)N1CCC(CN2CCC(C)CC2)CC1	-0.7%
CCOC(=O)c1c(S(=O)(=O)N2CCN(c3cc(Cl)ccc3C)CC2)c(C)n(C)c1C	-0.4%
CCCCOc1ccc(C(=O)Nc2nc3c(s2)CC(C)CC3)cc1 (stereo unspecified)	-3.7%
CCCn1c(CN2CCN(c3ccc(OC)cc3)CC2)nc2c1c(=O)[nH]c(=O)n2C	-20%
COc1ccc(S(=O)(=O)Nc2cccc(-c3ccc(N4CCCC4)nn3)c2)c(OC)c1	-2.3%
